Assay outcomes deposited in PubChem BioAssay by ICCB-Longwood Screening Facility, Harvard Medical School.
AID504770: growth inhibition of E. coli YBA685, primary screen, V. cholerae RctB inhibitors; E. coli YBA685 rctB-dependent plasmid, OD600 growth, 3 h; hits give low values; z-score (no concentration beside the values); hit rate 0.27% among 130,000;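 active = z-score under -2 on both plates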;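 also: wells of about 30 µL received 100 nL stock; score is relative to mean and SD of the test wells; the first replicate is given; strong numbers were not always called active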
Ba CapD inh: Bacillus anthracis CapD inhibitors, primary screen, biochemical, fluorescence intensity; purified CapD enzyme, fluorescence intensity read-out; hits give low values; some hits fall short of the stated cut; z-score (test concentration not listed); hit rate 0.23% among 140,000; AID 492967, 2010;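 active = z-score under -4 in either of two replicates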;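 also: stock transfer was 100 nL into about 40 µL; score is relative to mean and spread of the plate; one replicate is shown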
Active calls of the source: *; & = joins results of further samples. The list is partial; the hit share may differ from the screen's.

Start of the listing, in advance:
How did COC(=O)CCSc1nc2sc3c(c2c(=O)n1-c1ccc(OC)cc1)CC(C)(C)OC3 do in these assays?
Ba CapD inh: 0.5

Results for CCC(C(=O)OC)n1cnc2c(nnn2Cc2ccccc2F)c1=O (configuration not stated) ?
AID504770: -0.5; Ba CapD inh: 1.6

Results for COc1cc(/C=C2\N=C(c3ccc(C)c([N+](=O)[O-])c3)OC2=O)cc(Br)c1OC(C)=O ?
Ba CapD inh: -0.025

What do the screens show for `O=C(O)Cc1nc2ccccc2[nH]1`?
AID504770: -0.75; Ba CapD inh: 1.4

How did Cc1ccc2nc(NC(=O)CNc3ccc(F)cc3)sc2c1 do in these assays?
AID504770: -0.9; Ba CapD inh: 0.13

This part in full, previewed entries included:
How did COC(=O)CCSc1nc2sc3c(c2c(=O)n1-c1ccc(OC)cc1)CC(C)(C)OC3 do in these assays?
Ba CapD inh: 0.5

Results for CCC(C(=O)OC)n1cnc2c(nnn2Cc2ccccc2F)c1=O (configuration not stated) ?
AID504770: -0.5; Ba CapD inh: 1.6

Results for COc1cc(/C=C2\N=C(c3ccc(C)c([N+](=O)[O-])c3)OC2=O)cc(Br)c1OC(C)=O ?
Ba CapD inh: -0.025

What do the screens show for `O=C(O)Cc1nc2ccccc2[nH]1`?
AID504770: -0.75; Ba CapD inh: 1.4

How did Cc1ccc2nc(NC(=O)CNc3ccc(F)cc3)sc2c1 do in these assays?
AID504770: -0.9; Ba CapD inh: 0.13

Results for CN(Cc1c(F)cccc1Cl)C(=O)C1CC(=O)N(CCc2ccccc2)C1 (configuration not stated) ?
AID504770: -0.75

How did Cc1sc(Nc2ccc(C(F)(F)F)cc2)nc1-c1ccc(-c2ccccc2F)cc1 do in these assays?
Ba CapD inh: 4.9

Results for COc1cc(C2Nc3ccccc3C(c3ccccc3)(c3ccccc3)O2)ccc1O (configuration not stated) ?
Ba CapD inh: -0.32

Results for Cc1ccc(S(=O)(=O)N(CCC#N)C2CCCCC2)cc1 ?
AID504770: 1.7; Ba CapD inh: -0.075

What do the screens show for `Cn1nnnc1Sc1nc(-c2ccccc2)nc2ccccc12`?
AID504770: -0.55

What do the screens show for `CCOc1cc(C2Nc3ccccc3NC3=C2C(=O)CC(c2ccc(OC)cc2)C3)cc(Br)c1O` (configuration not stated)?
Ba CapD inh: -0.82

How did Cc1cc(=O)oc2cc(NC(=S)NCc3cc(C)n(C)n3)ccc12 do in these assays?
AID504770: 1.6; Ba CapD inh: 74

Results for O=C(Oc1ccccc1Cl)C1COc2ccccc2O1 (configuration not stated) ?
AID504770: -0.75; Ba CapD inh: -0.32

What do the screens show for `COc1ccc(OC)c2sc(N3CCN(C(=O)C(C)C)CC3)nc12`?
AID504770: -0.6

How did C=CCn1c(=O)sc2cc(Br)ccc21 do in these assays?
AID504770: 2; Ba CapD inh: -0.06

Results for CCOC(=O)CSc1nc2sc(C(=O)N3CCCC3)c(C)c2c(=O)n1CCc1ccccc1 ?
Ba CapD inh: -0.46

How did COC(=O)c1sccc1-c1ccc(C2C3=C(CCCC3=O)NC3=C2C(=O)CCC3)o1 do in these assays?
AID504770: -0.85; Ba CapD inh: 3.9

Results for CN(C)c1ccc(NC(=O)c2sc3ccccc3c2Cl)cc1 ?
AID504770: -0.2; Ba CapD inh: -1.2

Results for O=C(Cn1c(SCc2ccc(F)cc2)nc2cccnc21)N1CCCC1 ?
AID504770: 0.55; Ba CapD inh: 42

Results for Cc1cccc(C(CC(=O)N2CCN(c3ccccc3F)CC2)n2cccc2)c1 (configuration not stated) ?
AID504770: 0.05; Ba CapD inh: -0.08

Results for Cc1cccc(NC(=O)CSC2=NS(=O)(=O)c3ccccc32)c1C ?
AID504770: 2.2; Ba CapD inh: -1.1

What do the screens show for `O=C(Nc1ccccc1)Sc1ccc(F)cc1F`?
AID504770: -0.7; Ba CapD inh: 0.27

Results for CCC1C/C(=C\c2ccc(Br)cc2)C(=O)/C(=C/c2ccc(Br)cc2)C1 (configuration not stated) ?
Ba CapD inh: -0.21

What do the screens show for `Oc1ccc2oc3c(c2c1/C=N/N1CCCCC1)CCCC3`?
AID504770: -0.15; Ba CapD inh: -1.1

What do the screens show for `O=C(O)c1cccc(-c2ccc(/C=N\n3cnnc3)o2)c1`?
AID504770: -0.6; Ba CapD inh: 4.9

What do the screens show for `Cc1csc2nc(CSc3nnnn3-c3ccccc3)cn12`?
AID504770: -0.75; Ba CapD inh: inactive

What do the screens show for `CCN(CC)CC(O)CN1c2ccccc2Sc2ccccc21` (configuration not stated)?
AID504770: 0.15; Ba CapD inh: 0.85

What do the screens show for `CCOC(=O)c1c(N2C(N)=C(C#N)C(c3cccnc3)C3=C2CCCC3=O)sc2c1CCCC2` (configuration not stated)?
Ba CapD inh: -0.12

Results for CC(=O)/C(N=Nc1ccc(C(C)C)cc1)=C(\C)O ?
Ba CapD inh: -0.81

How did CCN(CC)CCn1c(=N)n(CC(O)c2ccc(Cl)c(Cl)c2)c2ccccc21 (configuration not stated) do in these assays?
AID504770: -0.7; Ba CapD inh: 0.12

Results for Cc1ncc(CO)c2cc(C(=O)Nc3ccccc3Cl)c(=O)oc12 ?
AID504770: -0.5; Ba CapD inh: -0.84

How did COc1ccc(/C=N/N=C2/NC(=O)/C(=C(/C)c3nonc3C)S2)cc1OC do in these assays?
AID504770: 0.1

What do the screens show for `COc1ccc(C(=O)NCCOc2cc(C)cc(C)c2)cc1OC`?
AID504770: 0.5; Ba CapD inh: -0.25

How did O=C(NC(SC1=NCCS1)C(=O)c1ccccc1)c1ccccc1 (configuration not stated) do in these assays?
AID504770: 1.4; Ba CapD inh: 0.56

How did C=CCN1C(=O)C(O)(c2c[nH]c3ccccc23)c2cc(Cl)ccc21 (configuration not stated) do in these assays?
AID504770: -1.1; Ba CapD inh: -0.8

What do the screens show for `CCN1C(C)=C(C)S/C1=C1\SC(=S)N(N)C1=O`?
Ba CapD inh: 1.7

Results for CC1=C(C)CS(=O)N(c2ccc(S(N)(=O)=O)cc2)C1 (configuration not stated) ?
AID504770: -0.4

Results for CC(C)=CCNc1ncnc2nc[nH]c12 ?
AID504770: -0.65; Ba CapD inh: 0.75

What do the screens show for `COC(=O)CSc1c(Cl)cncc1Cl`?
AID504770: 0.3; Ba CapD inh: 0.73

What do the screens show for `C/C(=N\O)C1(C)N(O)C(C)(C)C(c2ccc(C)cc2)=[N+]1[O-]` (configuration not stated)?
AID504770: -0.6

Results for CSC(=Nc1cc(C(F)(F)F)cc(C(F)(F)F)c1)N1CCCC1 ?
AID504770: 0.45; Ba CapD inh: -0.63

How did O=c1c2c3nc4ccccc4nc3n(CCN3CCOCC3)c2ncn1CCN1CCOCC1 do in these assays?
AID504770: 0.2

What do the screens show for `COc1cccc(OC)c1C(=O)ON=C1C=CC(=O)C=C1`?
AID504770: -1.3; Ba CapD inh: 2.8

Results for COc1ccc(C2Sc3ccccc3N(CCN(C)C)C(=O)C2OC(C)=O)cc1 (configuration not stated) ?
AID504770: -0.4; Ba CapD inh: 0.79

How did O=C1CCN(C(=S)NCCc2ccccc2)CC1 do in these assays?
AID504770: 1.2

Reprinted at random: two records from the list.
Results for COc1ccc(C2Sc3ccccc3N(CCN(C)C)C(=O)C2OC(C)=O)cc1 (configuration not stated) ?
AID504770: -0.4; Ba CapD inh: 0.79

What do the screens show for `C/C(=N\O)C1(C)N(O)C(C)(C)C(c2ccc(C)cc2)=[N+]1[O-]` (configuration not stated)?
AID504770: -0.6

Part of the list above in order of length of the SMILES, falling:
What do the screens show for `CCOc1cc(C2Nc3ccccc3NC3=C2C(=O)CC(c2ccc(OC)cc2)C3)cc(Br)c1O` (configuration not stated)?
Ba CapD inh: -0.82

Results for CCC1C/C(=C\c2ccc(Br)cc2)C(=O)/C(=C/c2ccc(Br)cc2)C1 (configuration not stated) ?
Ba CapD inh: -0.21

Results for COc1ccc(C2Sc3ccccc3N(CCN(C)C)C(=O)C2OC(C)=O)cc1 (configuration not stated) ?
AID504770: -0.4; Ba CapD inh: 0.79

What do the screens show for `COc1ccc(C(=O)NCCOc2cc(C)cc(C)c2)cc1OC`?
AID504770: 0.5; Ba CapD inh: -0.25

How did Cc1ccc2nc(NC(=O)CNc3ccc(F)cc3)sc2c1 do in these assays?
AID504770: -0.9; Ba CapD inh: 0.13

Next section:
What do the screens show for `O=C1CNC(=O)c2c(nc3n2CCC3)N1`?
AID504770: 1.1

What do the screens show for `COC(=O)c1ccccc1NC(=O)Cn1c(SCc2ccccc2)nc2ccccc21`?
Ba CapD inh: -0.2

How did COC(=O)c1cc2sccc2n1CC(=O)N1CCCc2ccccc21 do in these assays?
AID504770: 1.9; Ba CapD inh: -0.47

Results for COc1cc(NC(=O)c2nn3c(c2Br)NC(c2cccs2)CC3C(F)(F)F)c(OC)cc1Cl (configuration not stated) ?
Ba CapD inh: 0.02

Results for Cc1cccc(NS(=O)(=O)N(C)C)c1 ?
AID504770: -0.5&-0.35; Ba CapD inh: -0.06&-0.12

Results for CNC(=O)c1ccc2nc(N)sc2c1 ?
AID504770: -0.05; Ba CapD inh: 0.05

Results for C=CCOc1ccc(/C=C/[N+](=O)[O-])cc1 ?
Ba CapD inh: -0.19

What do the screens show for `O=S(=O)(Nc1ccccc1Cl)c1ccc2nc(-c3ccccc3)[nH]c2c1`?
AID504770: 0.3; Ba CapD inh: 24

Results for Cc1cc2c(CCl)cc(=O)oc2cc1C(C)C ?
AID504770: 1.1; Ba CapD inh: -0.34

Results for O=C(O)c1ccc(Sc2ccc(Cl)cc2)c([N+](=O)[O-])c1 ?
Ba CapD inh: -0.41

Results for CC(c1ccccc1)n1c(-c2cccc(S(=O)(=O)N3CCOCC3)c2)n[nH]c1=S (configuration not stated) ?
AID504770: 0.35

Results for CCC(CC)C(=O)NC12CC3CC(CC(C3)C1)C2 ?
AID504770: 0.6; Ba CapD inh: 0.63

How did CC(c1ccccc1)C(CC(=O)O)C(=O)NC1CCCCC1 (configuration not stated) do in these assays?
AID504770: -1.3; Ba CapD inh: -0.52

How did O=C(c1ccccc1)c1cnc(-c2ccccn2)nc1-c1ccccc1 do in these assays?
Ba CapD inh: -0.56

How did CC(=O)c1ccc(NC(=O)CSc2nc3ccc(NC(=O)c4ccccc4C(=O)O)cc3s2)cc1 do in these assays?
Ba CapD inh: -0.58

Results for C=CCNC(=O)Nc1ccc(F)c(Cl)c1 ?
AID504770: 0.7; Ba CapD inh: -1.2

What do the screens show for `Cc1ccn(C(=S)Nc2ccccc2)n1`?
AID504770: -0.9; Ba CapD inh: 0.095

Results for CC(C)c1ccc(NC(=O)COC(=O)/C=C/c2ccco2)cc1 ?
AID504770: 0.5; Ba CapD inh: 0.2

What do the screens show for `N#Cc1ccc(S(=O)(=O)N2CCC(C(=O)O)CC2)cc1`?
AID504770: 0

Results for COc1cc(/C=C2/NC(=S)NC2=O)ccc1OCc1ccccc1[N+](=O)[O-] ?
Ba CapD inh: -0.02

Results for CC(=O)N1CCC(N(C(=O)c2ccc(S(C)(=O)=O)cc2)c2ccc3[nH]c(C(C)(C)C)cc3c2)CC1 ?
Ba CapD inh: -0.045

Results for Cc1ccc(-c2csc(C3=C(O)CN(CCCn4ccnc4)C3=N)n2)cc1 ?
AID504770: 0.25

How did O=c1c2ccccc2nc(SCc2cccc(F)c2)n1CC1CCCO1 (configuration not stated) do in these assays?
AID504770: -0.3; Ba CapD inh: -0.03

Results for CNC(=S)c1sc2ccccc2c1C ?
AID504770: -0.75; Ba CapD inh: -1.9

Results for CC1(C)C(=O)N(c2ccccc2F)C(=O)c2ccccc21 ?
AID504770: 0.2

How did COCCNC(=O)Cc1csc2nc(-c3ccc(Cl)cc3)cn12 do in these assays?
AID504770: 0.45; Ba CapD inh: 0.07

How did CCOCCC(=O)Nc1ccc(OC)cc1 do in these assays?
AID504770: -0.25; Ba CapD inh: 0.025

Results for N/C(=N\C1=NC(C(F)(F)F)(C(F)(F)F)N=C(c2cccnc2)O1)Nc1ccccc1 ?
AID504770: -0.4; Ba CapD inh: 0.14

What do the screens show for `Cc1cc(C)cc(NC(=O)CSc2nc(-c3ccccc3)nn2C(=O)c2ccco2)c1`?
AID504770: 3

How did COc1ccc(NC(=O)c2ccc(N3CC4CC(C3)c3cccc(=O)n3C4)c(NC(=O)c3cccs3)c2)cc1Cl (configuration not stated) do in these assays?
Ba CapD inh: -0.13

Results for COc1ccc(C(c2c(C)[nH]c3ccccc23)N2CCCC2)cc1 (configuration not stated) ?
AID504770: -0.45; Ba CapD inh: 0.38

How did CCCNC(=O)NC1CCN(c2nc(C)cc(C)n2)CC1 do in these assays?
AID504770: -0.8; Ba CapD inh: 3.4

How did COC(=O)c1cc(S(=O)(=O)N2CCC(Cc3ccccc3)CC2)oc1C do in these assays?
AID504770: 0.25; Ba CapD inh: -0.36

How did Cc1ccc(-n2[nH]c(C)c(C=Nc3ccc(C)cn3)c2=O)cc1 do in these assays?
AID504770: -0.2; Ba CapD inh: 0.55

What do the screens show for `CC(N)c1ccc2c(c1)CCCC2` (configuration not stated)?
AID504770: -2.2

What do the screens show for `FC(F)(F)Oc1ccc(NCn2nnc3cc(Cl)ccc32)cc1`?
AID504770: 1.9; Ba CapD inh: 0.035

Results for Cn1cnnc1SCC(=O)n1c2ccccc2c2ccccc21 ?
AID504770: -1.1; Ba CapD inh: 1.7

Results for O=C(COc1ncnc2ccccc12)c1ccc2c(c1)OCCO2 ?
AID504770: -0.6

How did CCOCCOC(=O)C1=C(C)NC2=C(C(=O)CC(c3ccc(OC)cc3)C2)C1c1ccccc1Cl (configuration not stated) do in these assays?
Ba CapD inh: 52

What do the screens show for `c1ccc(-n2ncc3c(N4CCCCCC4)ncnc32)cc1`?
AID504770: -0.2; Ba CapD inh: 0.83

How did Cc1c(Cl)cccc1NC(=O)CCn1cnc2ccccc2c1=O do in these assays?
AID504770: 1.5; Ba CapD inh: -0.64

Results for O=C(c1ccco1)N1CCC(c2nc3ccccc3s2)CC1 ?
AID504770: -0.75

What do the screens show for `Cc1ccc2nc3ccc(N4CC(C)CC(C)C4)nn3c(=O)c2c1` (configuration not stated)?
AID504770: -0.55; Ba CapD inh: 0.27

How did O=c1oc2c3ccccc3oc(=O)c2c2ccccc12 do in these assays?
AID504770: 0.25; Ba CapD inh: 0.98
